# Screening data deposited in PubChem by Johns Hopkins Ion Channel Center.
# KCNQ2 enhance: KCNQ2 (rat) channel potentiation | 0.54% of 310,000 active | CHO-K1 KCNQ2, FluxOR thallium flux fluorescence; stronger effect = higher value | B-score at 10 µM | AID 2239;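 active = fluorescence ratio B-score at least 3 SD of library B-scores, with initial fluorescence B-score within 3 SD, cut at about 5.3 in these data; same plate scores as AID 2156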;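 also: B-score of peak minus minimum over baseline fluorescence ratio after K+ and Tl+ stimulus; positive B-score means potentiation of KCNQ2 with more thallium influx and brighter signal; only the inactives scoring about 0 or higher are listed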
# Target sequence (O88943 whole entry, looked up): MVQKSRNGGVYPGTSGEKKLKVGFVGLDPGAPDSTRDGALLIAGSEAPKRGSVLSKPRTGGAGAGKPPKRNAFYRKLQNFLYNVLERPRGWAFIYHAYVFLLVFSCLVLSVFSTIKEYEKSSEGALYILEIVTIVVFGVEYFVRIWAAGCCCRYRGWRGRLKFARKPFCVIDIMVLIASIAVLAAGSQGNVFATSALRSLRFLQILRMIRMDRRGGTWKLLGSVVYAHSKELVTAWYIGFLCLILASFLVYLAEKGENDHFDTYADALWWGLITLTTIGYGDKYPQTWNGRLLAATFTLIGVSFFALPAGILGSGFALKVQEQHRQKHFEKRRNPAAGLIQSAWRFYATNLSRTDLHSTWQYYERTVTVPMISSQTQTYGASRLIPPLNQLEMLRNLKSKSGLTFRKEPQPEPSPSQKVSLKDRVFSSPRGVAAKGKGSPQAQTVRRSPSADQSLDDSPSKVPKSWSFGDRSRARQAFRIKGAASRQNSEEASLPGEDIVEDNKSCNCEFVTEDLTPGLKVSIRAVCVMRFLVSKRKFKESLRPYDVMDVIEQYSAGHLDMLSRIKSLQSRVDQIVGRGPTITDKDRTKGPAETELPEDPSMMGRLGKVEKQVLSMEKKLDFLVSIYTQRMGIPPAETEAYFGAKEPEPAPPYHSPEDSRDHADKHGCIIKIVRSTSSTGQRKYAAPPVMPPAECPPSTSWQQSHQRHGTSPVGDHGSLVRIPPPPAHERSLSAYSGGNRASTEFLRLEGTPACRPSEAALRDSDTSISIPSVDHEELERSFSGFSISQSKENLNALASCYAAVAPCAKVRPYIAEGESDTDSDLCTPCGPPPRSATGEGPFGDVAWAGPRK
# KCNQ2 enhance baseline: further read-out of KCNQ2 enhance, marked with its call; B-score; compound at 10 µM; measured here: initial fluorescence intensity artifact check;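 brightness before thallium and not channel activity; 0 = typical well and far values either way flag optical interference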
# * = called active by the depositor. Only part of the results is shown; count on the stated rates, not on these rows.
SMILES,KCNQ2 enhance,KCNQ2 enhance baseline
C/C(=N\OCC(=O)Nn1c(C)nc2ccccc2c1=O)c1ccccc1,1.2,0.02
O=C(NNS(=O)(=O)c1ccc(F)cc1)C1CCN(Cc2cccc(F)c2)CC1,0.41,1.3
NC(=O)N=Nc1c(O)[nH]c2c(Br)cc(Br)cc12,1.1,-1.8
CC(=O)Nc1cccc(Oc2ncnc3scc(-c4ccccc4)c23)c1,0.02,0.02
CC(C)c1nc(CNC(=O)CC2C(=O)NCCN2Cc2ccoc2)cs1 (centres undefined),0.69,0.53
O=C1NCCNC1(c1c[nH]c2ccccc12)C(F)(F)F (centres undefined),0.41,-0.01
CCCOC(=O)C1[C@H]2C(=O)N(CC3CCCO3)C[C@]23C=C[C@H]1O3 (some centres undefined),0.45,0.96
COc1ccc(/C=C/C(=O)O)cc1Cl,1.3,0.1
Cc1cc(-c2ccccc2)nc(N(C)NC(=O)C(C)(C)C)c1S(C)(=O)=O,0.97,-0.3
CC/S(=N\S(=O)(=O)c1ccc(C)cc1)c1ccccc1 (centres undefined),0.62,0.49
C/C(Nc1ccccc1)=C(/C#N)C(N)=O,1.2,0.16
O=c1[nH]c2ccccc2nc1/C=C(\O)C(F)F,1.9,-1.2

# One compound at a time, as listed above.
# Cc1cc(-c2ccccc2)nc(N(C)NC(=O)C(C)(C)C)c1S(C)(=O)=O is entered as KCNQ2 enhance: 0.97; KCNQ2 enhance baseline: -0.3
# CCCOC(=O)C1[C@H]2C(=O)N(CC3CCCO3)C[C@]23C=C[C@H]1O3 (some centres undefined) is entered as KCNQ2 enhance: 0.45; KCNQ2 enhance baseline: 0.96

# Following part:
SMILES,KCNQ2 enhance,KCNQ2 enhance baseline
COc1ccc(-n2ccn3c(CCC(=O)N4CCN(c5cccc(C)c5C)CC4)nnc3c2=O)cc1,1.6,2.3
CCOc1cccc(CNn2cnnc2)c1OCc1ccccc1Cl,0.93,1.6
C/C(=N\NC1=NCCN1)c1ccc(Cl)cc1,0.86,0.96
O=C(CSc1nc2ccccc2nc1SCC(=O)N1CCOCC1)N1CCOCC1,1.5,-0.02
COc1cc2c(cc1OC)CN(C(=S)Nc1ccc(Cl)cc1)CC2,0.03,0.76
O=C(N/N=C\c1coc2ccccc2c1=O)c1ccco1,0.55,2
O=[N+]([O-])c1ncn(Cc2ccccc2Cl)n1,1,-0.64
O=C(O)CC(c1cccc(Cl)c1)n1cccc1 (centres undefined),0.3,0.53
C=CCOc1ccc(/C=C2\SC(N3CCCCC3)=NC2=O)cc1,1.2,-0.91
COc1ccc(NC(=O)CSc2ccc3nnc(-c4ccccn4)n3n2)cc1,0.12,-0.01
CC(=O)C1=C(Nc2ccc(C)cc2)CC(C)(O)C(C(C)=O)C1c1ccco1 (centres undefined),0.34,1.1
Cc1cc(/C=N/NC(=O)CC#N)c(C)n1-c1ccc([N+](=O)[O-])cc1,0.52,-0.32
O=C(CSc1nccc(=O)[nH]1)Nc1ccc(Br)c(Cl)c1,1.9,0.04
Cc1ccc(S(=O)(=O)N2CCC(C(=O)N3CCC[C@H]3C(=O)NCc3ccco3)CC2)cc1,1.2,0.44
Cc1nc(-c2ccc(C(=O)Nc3cccc(F)c3)cc2)cs1,0.91,0.1
O=c1ccc2cc3c([nH]c4ccc(Br)cc43)oc-2c1O,9.7*,-0.32*
O=C(OCC(=O)N1CCN(c2ccccc2)CC1)c1cc(Cl)ccc1[N+](=O)[O-],0.79,0.01
Cc1ccc(C(C(=O)NC(C)(C)C)N(Cc2ccccc2)C(=O)c2snc(C(N)=O)c2N)o1 (centres undefined),0.03,-0.07
NC(=O)/C=C\C(=O)Nc1cccc(C(F)(F)F)c1,1.1,-1.2
CC#CC(=O)N1CCCC(C(=O)c2ccc(SC)cc2)C1 (centres undefined),1.5,-0.27
O=C(Nc1cccc(S(=O)(=O)N2CCOCC2)c1)c1cc2c(s1)CCC2,4.2,-2.2
COc1ccc(NC(=O)CSc2nc3ccc(Nc4nc(N5CCOCC5)nc(N5CCOCC5)n4)cc3s2)cc1,0.71,-0.2
Cc1ccc(N2C(=O)CC(C)(C)CC2=O)cc1Cl,1.9,0.61
O=C(Nc1ccc(S(=O)(=O)NCCc2ccccc2)cc1)c1ccc(Br)o1,0.21,-1.4

# Two entries from above, with each value named.
> Cc1ccc(S(=O)(=O)N2CCC(C(=O)N3CCC[C@H]3C(=O)NCc3ccco3)CC2)cc1
  KCNQ2 enhance: 1.2	KCNQ2 enhance baseline: 0.44

> Cc1nc(-c2ccc(C(=O)Nc3cccc(F)c3)cc2)cs1
  KCNQ2 enhance: 0.91	KCNQ2 enhance baseline: 0.1

# Following part.
SMILES,KCNQ2 enhance,KCNQ2 enhance baseline
N#C/C=C/N1CCN(Cc2ccc3c(c2)OCO3)CC1,0.07,-1
Cc1cc(C(=O)OCC(=O)Nc2cccnc2Cl)c2ccccc2n1,0.24,-0.5
Cc1ccc(S(=O)(=O)N2CCCC2C(=O)NC2=NCCS2)cc1 (centres undefined),0.72,-0.61
Cc1ccc(C(=O)NCC(=O)NC2CCCCCC2)cc1,0.02,-0.51
Cc1nn(-c2ccccc2)c(C)c1C(=O)NCc1cccs1,1.8,-0.3
O=C(Nc1nc2c(ccc3ccccc32)s1)c1ccco1,1.1,0.09
Cc1ccc([N+](=O)[O-])cc1NC(=O)CSc1nncn1-c1ccccn1,1.7,-0.01
COC(=O)C1C(=O)C=C(Nc2ccc(F)cc2F)CC1c1ccccc1 (centres undefined),0.14,-0.06
COc1ccccc1N1CCN(/N=C(\C)c2ccc(O)cc2)CC1,0.48,-1.1
COc1ccc(-c2nnc3ccc(SCC(=O)NCC4CCCO4)nn23)cc1 (centres undefined),0.49,1.5
CC1(OC(=O)C2CCCC2)C(=O)C=C2C=C(c3ccsc3)N(CCCCO)C=C2C1=O (centres undefined),0.89,-0.02
COc1cc(C2C(C(=O)Nc3ccc(F)cc3)=C(C)Nc3nc(CCCO)nn32)cc(OC)c1OC (centres undefined),1.2,0.58
CCOc1ccc(OCc2ccc(C(=O)NC(C)C)o2)cc1,0.53,0.42
CSc1nc2nc3c(cc2c(=O)[nH]1)C(O)Oc1ccc(C)cc1-3 (centres undefined),0.78,-0.75
Nc1ccc(C(=O)N2CCN(S(=O)(=O)c3ccc(Cl)s3)CC2)cc1[N+](=O)[O-],0.17,0.43
COc1cc(C(=S)N2CCOCC2)ccc1OC(=O)c1ccccc1C,0.14,0.1
COC(=O)c1noc(C)c1-c1ccnn1C(=O)c1ccc(C)cc1,0.31,0
C#CC1(NC(=O)NCCCC)CCCCC1,1.3,-0.02
NC(=NC(=O)c1ccc(OCC(F)(F)F)nc1)c1ccc(Cl)cc1,0.33,-1
Cc1occc1C(=O)NNC(=O)CN1C(=O)NC(C)(c2ccccc2)C1=O (centres undefined),0.55,0.88
O=C(N/N=C/c1cccc(Cl)c1)C1CCCC1,2.5,0
COc1cccc(/C=C/C(=O)NCCc2ccc(OC)c(OC)c2)c1,2.4,0.04
CCCCOn1c(C)c(C(=O)OCC)c2c3no[n+]([O-])c3ccc21,0.57,0.64
COC(=O)c1ccc(C(=O)NC(=S)Nc2nc3c(s2)CC(C)CC3)cc1 (centres undefined),2.4,-0.73
O=C(NC(=S)Nc1ccc(S(=O)(=O)N2CCOCC2)cc1)c1ccccc1[N+](=O)[O-],0.27,-0.67
COc1ccc(OCCCC(=O)NCc2ccco2)cc1,0.02,0.62
CC1=NN(c2ccccc2)C(=O)C1N=Nc1ccc(C)cc1 (centres undefined),0.78,-0.55
CCOC(=O)CC(NC(=O)c1ccco1)c1ccc(C)cc1 (centres undefined),0.48,0.7
Cc1nc2c(sc3nc(N4CCOCC4)c4c(c32)CC(C)(C)OC4)c(-c2ccc(Cl)cc2)c1C(=O)O,1.1,1.3
CC(C)(C)NC(=O)COC(=O)c1cc(Cl)ccc1[N+](=O)[O-],1.7,-0.45
Cc1ccc(NC(=O)c2c([N+](=O)[O-])c(C(C)(C)C)nn2C)cc1,1.4,0.1
CCCCNC(=O)CCCCC(=O)N/N=C/c1cccc(Cl)c1,1.6,1.2
CC(=O)CC(=O)Nc1ccc2ccccc2c1,0.42,-1.3
O=C(Cn1cnc2c(nnn2Cc2ccc(Cl)cc2)c1=O)NCc1ccco1,0.5,-0.32
Cc1cc(C(=O)COc2ncnc3sccc23)c(C)n1C1CC1,0.51,-0.82
CCC(C)NCCOCCOc1ccc(Cl)c2ccccc12 (centres undefined),0.24,0.61

# Ordered by count of non-hydrogen atoms (smallest number first): 5 of the compounds above.
SMILES,KCNQ2 enhance,KCNQ2 enhance baseline
CC(=O)CC(=O)Nc1ccc2ccccc2c1,0.42,-1.3
CCC(C)NCCOCCOc1ccc(Cl)c2ccccc12 (centres undefined),0.24,0.61
O=C(Cn1cnc2c(nnn2Cc2ccc(Cl)cc2)c1=O)NCc1ccco1,0.5,-0.32
O=C(NC(=S)Nc1ccc(S(=O)(=O)N2CCOCC2)cc1)c1ccccc1[N+](=O)[O-],0.27,-0.67
Cc1nc2c(sc3nc(N4CCOCC4)c4c(c32)CC(C)(C)OC4)c(-c2ccc(Cl)cc2)c1C(=O)O,1.1,1.3

# (listing goes on)
SMILES,KCNQ2 enhance,KCNQ2 enhance baseline
COc1ccc([N+](=O)[O-])cc1NC(=O)c1ccco1,1.1,-0.92
COc1cccc(CN2C(=O)c3ccccc3C2C(=O)NCC2CCCO2)c1 (centres undefined),1.8,-0.48
COc1ccc(NS(=O)(=O)c2ccc(OC)c(NC(=O)CCC3CCCCC3)c2)cc1,0.13,-3
COC(=O)c1ccc(CSc2nnc(-c3ccncc3)n2Cc2ccccc2)o1,0.18,-0.01
[O-][n+]1onc2c1CCc1nnc(-c3ccccc3)cc1-2,0.24,-0.06
CC(C)CN(CC(C)C)S(=O)(=O)N1CCC(C(=O)NCc2ccco2)CC1,0.59,-1.2
N/C(=N\N=C\c1ccco1)SC1CC(=O)N(c2ccc(C(=O)O)cc2)C1=O (centres undefined),0.5,2
COc1ccc(C)cc1NS(=O)(=O)c1cc(C)ccc1C,0.86,1.6
CCCn1c2ccccc2c2cnn(CC(=O)NC3CCCCC3)c(=O)c21,0.5,0.83
COc1cccc(/C=c2\sc3nc(-c4cccs4)nn3c2=O)c1OC,0.01,-0.1
COc1ccc(C2OC(=O)CC2C(=O)NCc2ccc(Cl)cc2)cc1OC (centres undefined),0.54,-0.43
CCOC(=O)c1ccccc1NC(=O)COC(=O)c1ccccc1C(=O)N(C)c1ccccc1,0.1,-0.63
CCCCC(=O)N(Cc1ccc(-c2ccccc2-c2nn[nH]n2)cc1)[C@H](C(=O)O)C(C)C,0.33,1.1
Cc1ccc(S(=O)(=O)N2CCOCC2)cc1NC(=O)COC(=O)CNC(=O)c1ccc(Oc2ccccc2)cc1,0.55,-0.4
O=C(Nc1cccc(NC(=O)C2CC3CCCC(C2)C3=O)n1)C1CC2CCCC(C1)C2=O (centres undefined),0.15,-0.24
CSCCC(C(=O)O)N1C(=O)c2ccc(C(=O)O)cc2C1=O (centres undefined),1.8,-1.3
O=C(CNC(=O)c1cccc(F)c1)N/N=C/c1cccnc1,1.8,1.2
COc1cc(NC(=O)C/C(C)=N/NC(=O)Cc2ccccc2)c(OC)cc1Cl,0.41,-0.01
COc1ccc(C2(C)NC(=O)N(Cc3cc(Cl)cc4c3OCOC4)C2=O)cc1OC (centres undefined),0.75,-0.83
Cn1cccc1CC(=O)N/N=C/C=C/c1ccccc1,0.88,0.94
COC(=O)c1ccc(C2C(C(=O)c3cc4ccccc4o3)=C(O)C(=O)N2c2cc(C)on2)cc1 (centres undefined),0.61,0.85
Cc1cccc(C)c1NC(=O)CN(C)C(=O)c1cc([N+](=O)[O-])ccc1N1CCOCC1,1.1,0
O=C(O)CSc1nc2ccccc2nc1Cc1ccccc1F,3,1.6
COc1ccc2[nH]c(=O)c(CNc3cccc(C)c3)cc2c1,0.76,0.39
O=C(Nc1nc2ccccc2s1)C1CC(=O)N(c2ccccc2)C1 (centres undefined),0.35,-0.2
S=C(NCCN1CCOCC1)Nc1ccccc1Cl,0.84,-0.86
CNC(=O)c1cccc(NC(=O)c2ccccc2OCc2ccccc2)c1,0.99,-2.6
CC(C)CNC(=O)CCCc1ccccc1,0.66,0.2
CCOc1ccc(Nc2nc(N)c([N+](=O)[O-])c(N3CCOCC3)n2)cc1,0.5,-2.4
O=c1[nH]nc(Cc2ccc(-c3ccccc3Cl)o2)c2ccccc12,0.14,0.1
CCC1(C)CC(=O)N(c2ccc(F)c(Cl)c2)C(=O)C1,1,1.3
CCOc1ccccc1OCC(=O)Nc1ccccc1C(=O)NC1CC1,0.59,-0.08
CN(NC(=O)Nc1ccccc1)c1cnn(C)c(=O)c1Cl,0.35,0.15
COc1coc(C(O)C[N+](=O)[O-])cc1=O (centres undefined),1.5,-0.09
O=C(c1ccc2c(c1)CCN2S(=O)(=O)c1ccccc1)N1CCN(c2ccccc2F)CC1,1.7,-3.5
COc1ccc(O[C@H]2C=C[C@@H](c3ccccc3)O[C@@H]2CO/N=C(\C)CCC(=O)OC[C@H]2O[C@H](c3ccccc3)C=C[C@@H]2Oc2ccc(OC)cc2)cc1,0.43,2.1
CCn1c(COc2ccccc2C(N)=O)nc2ccccc21,1.1,-0.82
Cc1ccc(C(=O)NCC(=O)O)o1,0.29,1.1
COc1ccc(OC)c(NC(=O)C2CC(=O)N(c3ccc(Br)cc3)C2)c1 (centres undefined),0.98,1.2
NS(=O)(=O)c1ccc(NC(=O)C(Sc2ccccc2)c2ccccc2)cc1 (centres undefined),0.58,-0.53
CCc1nc2ccc(C(=O)NCc3ccccc3)cc2nc1CC,0.7,-0.49
CNC(=O)CS(=O)CC(=O)Nc1cc(OCCOC)c(Cl)cc1Cl (centres undefined),1.6,-2.2

# Some values from the entries so far:
# KCNQ2 enhance, Cc1ccc(C(=O)NCC(=O)O)o1 is entered as 0.29
# KCNQ2 enhance, CCn1c(COc2ccccc2C(N)=O)nc2ccccc21 is entered as 1.1
# KCNQ2 enhance, NS(=O)(=O)c1ccc(NC(=O)C(Sc2ccccc2)c2ccccc2)cc1 (centres undefined) is entered as 0.58
